Source: PubChem (Center for Chemical Genomics, University of Michigan)
CDC25B CDK2 inh – human CDC25B-CDK2/CyclinA binding inhibition | z-score (concentration not given with the values) | hit rate 0.72% among 94,000 | AID 1259370 | HTRF CDC25B-CDK2/CyclinA binding, anti-His/anti-Flag; stronger effect = higher value | P30305+P24941;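 also: score is relative to mean and SD of negative controls; strong numbers were not always called active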
TAR Tat displ – HIV-1 TAR-Tat binding disruption | hit rate 0.6% among 100,000 | z-score (no concentration beside the values) | HIV-1 TAR RNA, Tat peptide displacement FRET; stronger effect = higher value;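 also: score is relative to mean and SD of negative controls; some compounds called inactive have numbers as strong as hits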
Active calls of the source: *; / = not tested or not shown.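 The calls were made as follows: active = z-score from 3 up in half or more of its runs; inactive = the rest.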

Structure | CDC25B CDK2 inh | TAR Tat displ
O=C(O)C(Cc1ccccc1)N1C(=O)C2CCCCC2C1=O (configuration not stated) | -1.2 | -0.63
CC(C)(C)OC(=O)N1CCCN(C(=O)c2sc3ccccc3c2Cl)CC1 | -2.2 | /
O=C(Nc1ccc(F)cc1)N1CCC(n2c(CC3CCCC3)nc3cccnc32)CC1 | / | -0.73
Cc1ccc(NS(=O)(=O)c2ccc(-c3cnc(C)o3)cc2)c(C)c1 | / | 0.49
Cn1c(=O)c2c(nc3n2CCN3c2ccc(F)cc2)n(C)c1=O | / | 0.62
O=C(Cn1ncn2c(cc3cc(F)ccc32)c1=O)NC1CC1 | -1.4 | 0.23
CCOC(=O)C(=CNc1nc(C(=O)OCC)cs1)C(=O)OCC | -1.4 | /
CCOC(=O)C1=C(c2ccccc2)NC(SCC(=O)c2cccs2)=C(C#N)C1c1ccco1 (configuration not stated) | 2.2 | -3
CCCCSc1nnc2c(n1)OC(C)=Nc1ccccc1-2 | 0.6 | 0.81
Cc1nn(-c2ccc(N3CCCC3)nn2)c(C)c1CCC(=O)N1CCN(c2ncccn2)CC1 | / | -0.29
CCOC(=O)c1c(NC(=O)c2nc3ncccn3n2)sc2c1CCC2 | -0.76 | -0.44
COC(=O)C1=C(C)NC2=C(C(=O)CC(c3ccccc3)C2)C1c1ccc(OC(C)=O)c(OC)c1 (configuration not stated) | 1.2 | 1.2
CCN(CC)C(=O)CSc1cn(CC(=O)N2CCOCC2)c2ccccc12 | / | 0.21
COCCOC(=O)C1=C(C)NC2=C(C(=O)CC(c3ccccc3)C2)C1c1ccc(OC(C)=O)cc1 (configuration not stated) | -0.59 | 2
CC1=C(c2ccc(C)c(C)c2)S(=O)(=O)NC1=O | -1.3 | 1.3
CCC(C)NC(=O)N1CCCN(c2nc3cc(F)ccc3n3cccc23)CC1 (configuration not stated) | / | -3.8
CCc1nn2c(=O)cc(COC(=O)CSc3ccc(Cl)cc3)nc2s1 | / | 0.04
CCCNC(=O)c1cnc(N2CCOCC2)nc1 | / | 1.1
Cc1cc(C)cc(NC(=O)CCS(=O)(=O)c2ccc3c(c2)CCN3C(=O)C2CC2)c1 | / | 0.08
CNC(=O)C1CCC(Cn2c(=O)c3sccc3n(CC(=O)NCc3ccco3)c2=O)CC1 (configuration not stated) | / | 0.04
CC(C)CC1N=C2c3ccccc3N=C(SCC(N)=O)N2C1=O (configuration not stated) | / | 3.9
CSc1cccc(NC(=O)CSc2nc3ncccc3[nH]2)c1 | / | 0.81
CSc1nc(-c2cccs2)c(C#N)c(=O)[nH]1 | -1.5 | /
COc1ccccc1-c1cc(N)n(S(=O)(=O)c2ccc(F)c(Cl)c2)n1 | -0.98 | /
CN(C(=O)COc1cc(=O)n(C)c2ccccc12)c1cccc(Cl)c1 | -0.95 | /
COc1cccc(-c2nc3c(c(=O)[nH]2)Cc2cc(Cl)ccc2O3)c1OC | -0.63 | 0.76
Cn1c(=O)oc2cc(S(=O)(=O)N(Cc3ccco3)C(=O)c3ccco3)ccc21 | 0.86 | 2.7
Cc1c(C)c2c(c(C)c1OCc1ccccc1)C(CO)C(C)(C)O2 (configuration not stated) | -0.22 | /
Cn1c(=O)n(C)c2cc(N3CCCCC3)c(NC(=O)NCc3ccc(F)cc3)cc21 | 0.42 | -1.6
CSc1cccc(NC(=O)C2CC3CSCN3C23C(=O)Nc2ccccc23)c1 (configuration not stated) | / | 0.4
CC1=C(c2ccc(Cl)cc2)S(=O)(=O)NC1=O | -2.4 | 2.2
O=C(NCc1cccn1Cc1ccccc1F)Nc1ccccc1Br | / | 1.4
C#CCOc1nc(OCC#C)nc(N2CCOCC2)n1 | -1.1 | -1.6
CC(=O)N1c2c(cc(Br)cc2S(=O)(=O)CCC(=O)NC2CCCCC2)CC1C (configuration not stated) | -1.1 | /
CCN(C(=O)CN1C(=S)NC(C)(C)CC1C)c1ccccc1 (configuration not stated) | 1.1 | /
COc1ccc(NC(=O)CSc2nc3ncccc3o2)c(OC)c1 | / | 0.42
CCN(CC)S(=O)(=O)c1c(C)nn(S(=O)(=O)c2cc(C)ccc2C)c1C | / | 0.43
Cc1ccc(S(=O)(=O)c2c[nH]c3cc4c(cc3c2=O)OCCO4)cc1 | -1.8 | 1.2
CN1CCN(C(=O)C(=O)Nc2c3c(nn2-c2ccc(F)cc2)CSC3)CC1 | / | 0.24
O=C1CC(N2CCN(c3ccc(Cl)cc3)CC2)C(=O)N1c1cccc(Cl)c1 (configuration not stated) | -1.5 | 0.3
CCN(CC)CCCNC(=O)C(=O)Nc1ccc2nc3n(c(=O)c2c1)CCCCC3 | -1.6 | /
CSc1nnc(NC(=O)c2cc(-c3ccccc3)on2)s1 | -4.8 | 2.6
COc1ccc(N2C(=O)C3CN=NC3(C)C2=O)cc1 (configuration not stated) | -1.3 | -0.99
O=C(CSc1ncnc2sc(-c3ccccc3)cc12)Nc1ccc2c(c1)OCO2 | -1.4 | /
Cc1ccc(Sc2nnc3c(=O)n(C)c(=O)n(C)c3n2)cc1 | -2.5 | 0.8
Cc1nn(C)c2c1c(C(F)(F)F)cc(=O)n2Cc1ccc(F)cc1Cl | / | 0.86
COc1cc(C2NC(=O)C(C#N)=C(SC)S2)cc(OC)c1OC (configuration not stated) | -2.7 | /
COC(=O)c1nn(C)c2c1CCc1ccccc1-2 | -2.1 | 1.6
O=C(c1cc(-c2ccccc2)on1)N(Cc1ccccc1Cl)C1CCS(=O)(=O)C1 (configuration not stated) | -1.2 | -0.32
Cc1nc2sccn2c(=O)c1NC(=O)c1c(F)cccc1Cl | / | 0.68

Given with two lines to a compound: entries from further up.
Below each compound: CDC25B CDK2 inh, TAR Tat displ
O=C1CC(N2CCN(c3ccc(Cl)cc3)CC2)C(=O)N1c1cccc(Cl)c1 (configuration not stated)
  -1.5, 0.3
CSc1nnc(NC(=O)c2cc(-c3ccccc3)on2)s1
  -4.8, 2.6
Cc1c(C)c2c(c(C)c1OCc1ccccc1)C(CO)C(C)(C)O2 (configuration not stated)
  -0.22, /
CC1=C(c2ccc(Cl)cc2)S(=O)(=O)NC1=O
  -2.4, 2.2
CCN(C(=O)CN1C(=S)NC(C)(C)CC1C)c1ccccc1 (configuration not stated)
  1.1, /

Next part
Structure | CDC25B CDK2 inh | TAR Tat displ
COc1ccc(NC(=O)N2CCn3cccc3C2C)cc1OC (configuration not stated) | / | -3.2
O=C(NC1(C(F)(F)F)Oc2ccccc2O1)N1CCCCC1 | -0.84 | /
COc1ccccc1-c1c(C(F)(F)F)oc2c(CN3CCOCC3)c(O)ccc2c1=O | 0.7 | 1
O=C(O)c1cc2c(=O)oc3ccccc3c2[nH]1 | -2 | 0.32
Cc1nn(CCCC(=O)NCc2ccco2)c(=O)c2cc3sccc3n12 | -1.4 | -1.5
CC(C)OCCCNC(=O)CN(C)c1nnc(N2CCCCC2=O)s1 | / | 1.9
COc1ccc(Nc2oc(-c3ccc(F)cc3)nc2C#N)cc1 | -0.89 | 4.6
CCN(CC)CCN(C(=O)c1cccs1)c1nc2c(F)cc(F)cc2s1 | / | 0.84
COc1ccc(-c2csc(C)n2)cc1S(=O)(=O)NCc1cccs1 | / | 0.49
Nc1c(-c2ccccc2)cnc2ncnn12 | -1.6 | 0.57
COc1c(I)cc(I)cc1/C=C1/C(=O)NN(c2cccc(Cl)c2)C1=O | -2.3 | /
O=C(c1cc2c(s1)-c1ccccc1OC2)N1CCN(c2cccc(Cl)c2)CC1 | -0.95 | -0.34
COc1ccc(S(=O)(=O)[C@H]2CS(=O)(=O)C[C@@H]2N2CCN(c3ncccn3)CC2)cc1 | -0.82 | 0.82
CN(C)c1ccc(NC(=O)CCCC(=O)O)cc1 | -4.2 | 1.7
Cc1cccc(-c2nc3ccccc3c3nnc(SCC(=O)N4CCCC4)n23)c1 | / | 1.3
CCCOC(=O)C1=C(C)NC2=C(C(=O)CCC2)C1c1ccc(SC)cc1 (configuration not stated) | -0.28 | 0.23
CC(C)(C)c1cc(NC(=O)/C(C#N)=C/c2cccc(Cl)c2Cl)c(C(N)=O)s1 | -1.9 | /
CC1CCN(S(=O)(=O)c2ccc(S(=O)(=O)N3CCN(c4ncccn4)CC3)cc2)CC1 | -1.8 | -0.75
CCC(O)c1nc2ccccc2n1Cc1ccccc1C (configuration not stated) | -0.88 | 1.5
COc1cc(Cl)cc2c1OC=CC(C(=O)Nc1ccc(F)cc1)=C2 | -0.29 | 0.38
NCCc1c(C(=O)O)[nH]c2ccc(S(N)(=O)=O)cc12 | 1.4 | /
CC1CCN(S(=O)(=O)c2ccc3c(c2)N(CC(=O)N2CCCCC2C)C(=O)CS3)CC1 (configuration not stated) | -1.1 | 1.1
CC(C)C(=O)Nc1nc2cc(NS(=O)(=O)c3cccc4nsnc34)ccc2s1 | / | 1.7
O=C1CC2(CCN(C(=O)NC3CCCC3)CC2)Oc2ccccc21 | / | 0.97
COc1ccc(NS(=O)(=O)c2ccc(-c3cc(C)no3)s2)cc1 | / | -7.2

Shown with two lines to a compound: entries from further up.
Order of values – CDC25B CDK2 inh	TAR Tat displ
> O=C(NC1(C(F)(F)F)Oc2ccccc2O1)N1CCCCC1
    -0.84	/
> COc1ccccc1-c1c(C(F)(F)F)oc2c(CN3CCOCC3)c(O)ccc2c1=O
    0.7	1
> O=C(O)c1cc2c(=O)oc3ccccc3c2[nH]1
    -2	0.32
> Cc1nn(CCCC(=O)NCc2ccco2)c(=O)c2cc3sccc3n12
    -1.4	-1.5
> CC(C)OCCCNC(=O)CN(C)c1nnc(N2CCCCC2=O)s1
    /	1.9

Other results follow.
Structure | CDC25B CDK2 inh | TAR Tat displ
OCc1ccccc1CN1CCCCC1 | -0.63 | -0.52
CN(CC(=O)NC1CCCCC1)S(=O)(=O)c1ccc2c(c1)C(=O)NCC(=O)N2 | / | 2.3
Cc1nc2sc3ccccc3n2c(=O)c1S(=O)(=O)Nc1ccccc1Br | / | 3.1
Cc1ccc(CSc2nnc(C3CCNCC3)o2)cc1 | -2.5 | 1.9
Cc1ccc(F)cc1NS(=O)(=O)c1cc(-c2ccc(=O)[nH]n2)ccc1C | -1.7 | 1.5
Cc1ccc(CN2C(=O)C3C(c4ccccc4Cl)OC4(C(=O)c5ccccc5C4=O)C3C2=O)cc1 (configuration not stated) | -0.94 | 0.64
O=c1c2c(nc3nc(NCc4cccc(Cl)c4)[nH]n13)CCC2 | 0.26 | 1.4
C=CCOc1ccc(/C(O)=C2\C(=O)C(=O)N(CCN3CCOCC3)C2c2ccc(Cl)cc2)c(C)c1 (configuration not stated) | -3.2 | 0.03
CCOC(=O)Cn1c(=O)oc2cc(S(=O)(=O)NC3CCCCC3C)ccc21 (configuration not stated) | 0.93 | 1.1
Cn1c(=O)c(C(=O)Nc2ccccc2F)nn(-c2ccc(Cl)cc2)c1=O | / | 1.9
O=C(CSc1cn(CC(=O)N2CCCC2)c2ccccc12)NC1CCCCC1 | / | -0.67
CC(=O)N1c2ccc(S(=O)(=O)N3CCCC3)cc2CC1C(=O)Nc1ccc(Cl)cc1 (configuration not stated) | / | 1.4
CCn1c2ccccc2n2c(C(=O)OC)c(C)nc12 | -2 | /
COc1ccc2c(c1)c(N1CCCC1=O)c(C(=O)NC1CCCCC1)n2C | / | 0.95
Oc1ccc(-c2nc3cnccn3c2Nc2ccc3c(c2)OCO3)cc1 | -0.72 | -0.41
COC(=O)c1cn(C(=O)COc2ccc(Cl)cc2)c2ccccc12 | 3.5 | 0
Cc1cc(N)n(Cc2ccccc2)n1 | -1.4 | 1
CCOC(=O)c1cc(Cn2c(=O)cc(C)c3c(C)nn(C)c32)on1 | / | 0.09
CCOC(=O)/C(C#N)=C(\C)c1ccc(NC(C)=O)cc1 | -0.74 | /
O=C(Nc1ccc(SCc2nc3ccccc3[nH]c2=O)cc1)c1ccco1 | / | 0.23
Cc1nc2c(c(C)c1CCC(=O)NCC(N)=O)c(=O)n(C)c(=O)n2C | -0.81 | 2.6
CN1C(=O)c2ccccc2C(C(=O)Nc2ccc(F)cc2F)C1c1cn(C)c2ccccc12 (configuration not stated) | -1.1 | /
Clc1nc2ccccc2nc1Oc1ccccc1 | -1.5 | 0.25
Cc1oc2ccc(OCc3ccc(Br)cc3)cc2c1C(=O)O | 0.85 | 2
Cc1cc(-c2ccc(=O)[nH]n2)cc(S(=O)(=O)N2CC(C)CC(C)C2)c1C (configuration not stated) | / | 1.6
Nc1cc(C(=O)N2CCN(c3ccc(F)cc3)CC2)ccc1N1CC2CC(C1)c1cccc(=O)n1C2 (configuration not stated) | / | 2.5
COc1ccc(C(=O)Nc2ccccc2Sc2ccc(Cl)cc2[N+](=O)[O-])cc1OC | -0.12 | /
CCOC(=O)Cn1cc(C(=O)c2ccco2)c2ccccc21 | 0.47 | 0.94
O=c1ccc([N+](=O)[O-])cn1C1CCCCO1 (configuration not stated) | 0.07 | /
Cc1cc(NCc2ccccc2)n2ncc(-c3ccc(F)cc3)c2n1 | 0.39 | -1.6
Cc1nn(C)c(NC(=O)NN2CCOCC2)c1[N+](=O)[O-] | -1.1 | /
CC(C)c1ccc(C2C(C(=O)c3cccs3)=C(O)C(=O)N2CCCN2CCOCC2)cc1 (configuration not stated) | 0.97 | 0.03
Cc1ccc(OCc2ccc(-c3nc(C#N)c(N4CCCCC4)o3)o2)cc1 | 1.8 | 0.69
CC1=C(C(=O)NCCC2=CCCCC2)C2(CCN(S(C)(=O)=O)CC2)OC1=O | / | 0
CCOC(=O)CSc1nc2sccn2c1C=Nc1cc(Cl)cc(Cl)c1 | -2.5 | /
CC(=O)N1CCc2c(sc3nc(SCc4cc(C)ccc4C)n(CC4CCCO4)c(=O)c23)C1 (configuration not stated) | -2.6 | -0.62
O=C(NCCO)C1=Cc2cc(Br)ccc2OC=C1 | -1.6 | -0.41
Cc1c(C(=O)N2CCN(C)CC2)sc2nc3n(c(=O)c12)CCCCC3 | / | 1.8
c1ccc(-c2csc(Cc3c[nH]c4ccccc34)n2)cc1 | 0.52 | -0.11
